# From PubChem
# HNF4A DNA FP: change in binding of human HNF4A to DNA, primary screen, biochemical, fluorescence polarization, FITC-DNA; actives 0.3% (n = 360,000); Hepatocyte nuclear factor 4-alpha (Homo sapiens), P41235; activity change, % at 10 µM; 1 h; in the data active = activity change above about 30%, passing the limit was not always enough;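 also: controls were the assay level and a saturating level of protein; the project sought stronger binding though the title names inhibitors; some compounds called inactive have numbers as strong as hits; positive values seem to mean higher polarization but the record does not say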
# Vif TR-FRET: inhibitors of Vif binding to APOBEC3G peptide, primary screen, biochemical, TR-FRET, GST-Vif 1-94, biotin-A3G peptide, dose response retest (AID 1117319) | TR-FRET GST-Vif / biotin-A3G peptide binding; higher % means a stronger effect; test concentration not given here; strong numbers were not always called active | inhibition, %; hits with a dose series show IC50 in µM | actives 0.57% (n = 260,000) | Virion infectivity factor (Human immunodeficiency virus type 1 group M subtype B (isolate …;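 active = above the screen mean plus three standard deviations and confirmed in dose response; inconclusive = results disagree or hit not tested in dose response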;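 also: Vif residues 1-94 fused to GST binding biotinylated APOBEC3G peptide 110-148; 0% = full assay without inhibitor and 100% = GST in place of GST-Vif; retest series ran down from 100 µM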
# Ecoli growth: E. coli growth inhibition, primary screen, OD600. actives 0.21% (n = 330,000). OD600 absorbance (no concentration beside the values). Escherichia coli growth, 23 h; active compounds read low;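 active = OD600 absorbance below the run mean of sample wells minus 3.6 SD, in any replicate, cut at about 0.56 in these data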;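 also: stock transfer was 300 nL into about 60 µL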
# UCH37 DUB inh: inhibitors of human UCH37 deubiquitinase, primary screen, biochemical, Ub-AMC cleavage, fluorescence | purified proteasome/UCH37 | inhibition, % (concentration not given with the values) | actives 0.33% (n = 330,000);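 active = mean of two replicates above 20%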;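 also: 0% = compound-free wells with enzyme and 100% = wells lacking proteasome; stock transfer was 100 nL into about 20 µL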
# Target sequence (Q9Y5K5 whole entry, looked up): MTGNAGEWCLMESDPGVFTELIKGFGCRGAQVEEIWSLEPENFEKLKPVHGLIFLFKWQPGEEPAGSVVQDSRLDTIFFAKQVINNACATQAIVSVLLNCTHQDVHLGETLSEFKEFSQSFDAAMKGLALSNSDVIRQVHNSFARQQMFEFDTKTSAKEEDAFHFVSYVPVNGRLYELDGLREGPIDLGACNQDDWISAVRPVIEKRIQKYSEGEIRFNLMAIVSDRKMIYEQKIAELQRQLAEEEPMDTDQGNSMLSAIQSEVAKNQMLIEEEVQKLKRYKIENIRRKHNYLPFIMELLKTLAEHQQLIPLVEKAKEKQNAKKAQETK
#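 Material: human UCH37 enzyme supplied as purified proteasome complex. Measure: % inhibition of Ub-AMC cleavage fluorescence. Medium: pH 7.4 Tris-HCl (50 mM) with ovalbumin, ATP-MgCl2, DTT. Times: 30 min preincubation with enzyme, 25 min cleavage at room temperature. Detection: AMC fluorescence intensity at 355/460 nm.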
# LANA-H2A inh: blockers of LANA interaction with H2A/H2B – biochemical, FP readout, HTS, primary screen; Protein LANA1 (Human herpesvirus 8 type P (isolate GK18)), Q9QR71; cell-free LANA-H2A/H2B peptide, fluorescence polarization; actives 0.6% (n = 320,000); inhibition, % (no concentration beside the values); in the data active = inhibition mostly above about 10%, no sharp cut-off; inactive = mostly below about 6.7%;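 also: stock transfer was 7.5 nL into about 10 µL; 0% = median of vehicle wells and 100% = median of positive control wells; one replicate is shown; the record names a cut of 25% in any replicate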
# Beta2AR agonist: beta2AR agonists driving receptor internalization, primary screen, cell-based, FAP fluorogen, flow cytometry. Beta-2 adrenergic receptor (Homo sapiens), P07550. Am2.2-beta2AR cells; reference of the scale not given here. response, % (no concentration beside the values). actives 0.43% (n = 340,000). AID 504454, 2011;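 active = response above a set limit, near 3 SD of response in nonfluorescent compounds, cut at about 42% in these data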;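 also: stock transfer was 100 nL into about 11 µL; a reference agonist was the positive control; negative values mostly stem from fluorescent compounds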
# Target sequence (P07550 whole entry, looked up): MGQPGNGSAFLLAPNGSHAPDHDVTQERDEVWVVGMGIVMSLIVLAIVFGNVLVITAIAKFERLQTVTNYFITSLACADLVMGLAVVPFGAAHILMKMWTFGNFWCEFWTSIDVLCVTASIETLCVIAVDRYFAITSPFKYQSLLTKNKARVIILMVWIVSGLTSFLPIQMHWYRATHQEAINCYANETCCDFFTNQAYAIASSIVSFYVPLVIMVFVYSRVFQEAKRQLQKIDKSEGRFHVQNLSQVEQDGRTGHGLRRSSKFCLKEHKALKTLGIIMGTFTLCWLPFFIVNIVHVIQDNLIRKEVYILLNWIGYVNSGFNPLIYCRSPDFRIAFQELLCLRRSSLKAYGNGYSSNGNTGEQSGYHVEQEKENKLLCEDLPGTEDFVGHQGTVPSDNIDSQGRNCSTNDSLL
# A1 inh: caspase 3/7 activation in MEF A1-2A-BIM cells, primary screen, A1 inhibitor project, cell-based, luminescence, HTS. AID 2462, 2010. actives 0.066% (n = 330,000). Caspase-Glo 3/7 luminescence, 3 h; percent of clofoctol response, vehicle zero. caspase activation, % (no concentration beside the values);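 active = over half of replicate activation scores above 10%, or exactly half above 10 with the replicate mean above 10; inconclusive = replicate mean below 10 yet half the replicates above 10; inactive = over half of replicates below 10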;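 also: wells of about 30 µL received 50 nL stock; many hits fall short of the cut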
# * = called active by the depositor; ? = inconclusive; . = not tested or not shown.
# Order of results – HNF4A DNA FP	Vif TR-FRET	Ecoli growth	UCH37 DUB inh	LANA-H2A inh	Beta2AR agonist	A1 inh
CCC(Oc1ccccc1)C(=O)Nc1ccc(S(=O)(=O)Nc2cnc3ccccc3n2)cc1 (stereo not drawn)
 : -1.9	-1%	0.66	-3.1	-6.0	-13	1.4
O=C(Nc1nc(-c2cccc3ccccc23)cs1)c1cnccn1
 : 0.0	-11%	0.7	0.1	3.2	1	-1.0
COc1ccc(S(=O)(=O)N2CCCCC2)cc1NC(=O)c1cnc(C)cn1
 : -1.1	.	0.72	-1.6	1.4	-3	1.6
CCC1Sc2ccc(S(=O)(=O)CCC(=O)Nc3ccccc3Br)cc2NC1=O (stereo not drawn)
 : -3.2	-1%	0.67	1.4	-11	4	-0.3
O=C(Nc1nnc(C2CC2)s1)c1ccc(Cl)c(S(=O)(=O)N2CCc3ccccc3C2)c1
 : -2.9	8%	0.7	-3.9	-7.4	-5	-0.6
Brc1ccc(/C=N/Nc2nncc(-c3ccccc3)n2)o1
 : .	6%	.	.	1.2	.	-1.2
COc1ccc(CC(C)N2CCN(c3cccc(C(F)(F)F)c3)CC2)cc1OC (stereo not drawn)
 : 1.8	8%	0.6	2.5	1.6	0	0.0
CCOC(=O)c1ccc(NC(=O)CSc2nc3c(c(=O)n2CC)SC(C)C3)cc1 (stereo not drawn)
 : 1.4	1%	0.75	4.4	2.6	3	?
Cc1nc(-c2coc3cc(C)c(N=O)c(O)c3/c2=N\N)cs1
 : 0.7	2%	.	.	1.4	9	0.2
NC(=S)NN=Cc1nccc2ccccc12
 : -0.2	2%	0.46*	12	.	-2	.
O=C(N/N=C/c1ccccc1F)NC12CC3CC(CC(C3)C1)C2
 : -2.8	2%	.	.	-2.5	9	0.7
Brc1ccc(-c2csc(N3CCc4ccccc4C3)n2)cc1
 : 1.5	-4%	0.7	-0.2	-3.4	15	-0.7
O=C(CN(C(=O)CCC(=O)Nc1nccs1)c1cccc(C(F)(F)F)c1)NCC1CCCO1 (stereo not drawn)
 : 3.1	.	0.7	6.3	-2.6	-5	-0.4
O=C(c1cc2cc(Cl)ccc2o1)N1CCCCCC1
 : -12	-4%	0.65	1.9	.	-1	.
COc1cccc(C(c2nnnn2Cc2ccco2)N2CCN(c3cccc(C)c3C)CC2)c1OC (stereo not drawn)
 : -1.7	?	0.77	-2.6	1.7	-5	-0.3
CCOC(=O)c1sc(NC(=O)CNC(=O)Cn2cnc3sc(C)c(C)c3c2=O)nc1C
 : 5.9	28%	0.73	4.8	4.8	-8	0.3
Cc1c(OCC(=O)NC2CC(C)(C)NC(C)(C)C2)ccc2c1oc(=O)c1ccccc12
 : 5.1	10%	0.67	-265	-3.7	13	0.0
CCCN1CCC(=O)N(CCSc2ccc(C)cc2)CC1
 : 3.4	16%	0.68	4.2	.	-3	.
CCn1c(SC(C)C(=O)NCC2CCCO2)nc2ccccc21 (stereo not drawn)
 : -5.5	-4%	0.68	-1.2	-2.2	-11	-0.2
Cc1ccc(C(=O)n2c3ccccc3c3ccccc32)cc1
 : -3.3	-7%	0.8	5.1	-4.2	-4	0.3
C=CCNC(=O)C1CCN(S(=O)(=O)c2ccc3ccccc3c2)CC1
 : 5.3	-2%	0.73	-1.3	3.3	-6	-0.4
CCc1ccc(S(=O)(=O)NCCc2cn3cccc(C)c3n2)s1
 : -0.7	-3%	0.7	2.7	-0.2	-5	-0.1
Cc1ccc(-c2nc3ccccn3c2NCc2ccc3c(c2)OCO3)cc1
 : -2.9	0%	0.7	-276	-2.3	-11	-6.6
CCC(C)[C@H](NC(=O)N1CC(=O)Nc2ccccc21)C(=O)Nc1ccccc1C (stereo partly drawn)
 : -1.0	.	0.7	0.9	-0.7	-2	-0.3
COc1cccc(C2=CC(c3ccc(N(C)C)cc3)n3nnnc3N2)c1 (stereo not drawn)
 : 5.6	3%	0.69	-18	1.9	0	0.1
Cc1[nH]nc(SCC(=O)N2CCCC2)c1[N+](=O)[O-]
 : -0.6	.	0.68	4.9	3.4	-2	0.4
C=CC[C@H](CC(=O)NCCO)C(=O)N[C@@H](COC(=O)[C@@H](CC=C)Cc1ccc(F)cc1)Cc1c[nH]c2ccccc12
 : 0.2	.	.	1.2	0.8	-8	0.6
Cc1ccc(S(=O)(=O)N2CCOCC2)cc1C(=O)N1CCC(Cc2ccccc2)CC1
 : -0.5	.	0.67	0.0	-3.6	-2	0.1
O=C(CSc1nnc(NC(=O)C2CCCCC2)s1)NCc1ccco1
 : 0.5	20%	0.73	2.0	-0.3	-5	0.0
CCc1c(C)c2ccc(OCC(=O)NCC3CCC(C(=O)O)CC3)cc2oc1=O (stereo not drawn)
 : -0.2	.	0.8	-125	-4.6	-3	0.4

# Among those listed so far, two contain a CF3 group:
# Order of results – HNF4A DNA FP	Vif TR-FRET	Ecoli growth	UCH37 DUB inh	LANA-H2A inh	Beta2AR agonist	A1 inh
COc1ccc(CC(C)N2CCN(c3cccc(C(F)(F)F)c3)CC2)cc1OC (stereo not drawn)
 : 1.8	8%	0.6	2.5	1.6	0	0.0
O=C(CN(C(=O)CCC(=O)Nc1nccs1)c1cccc(C(F)(F)F)c1)NCC1CCCO1 (stereo not drawn)
 : 3.1	.	0.7	6.3	-2.6	-5	-0.4

# Further results:
# Order of results – HNF4A DNA FP	Vif TR-FRET	Ecoli growth	UCH37 DUB inh	LANA-H2A inh	Beta2AR agonist	A1 inh
Cc1ccc(NC(=S)N2CCSC2c2cccs2)cc1 (stereo not drawn)
 : 0.8	.	0.71	0.5	0.9	0	0.6
O=C(NCc1ccco1)Nc1ccc(Br)cc1Cl
 : -2.8	28%	0.65	2.5	-2.6	-2	1.2
COc1cc(Cl)c(C)cc1NC(=O)CNC(C)c1ccccc1OC (stereo not drawn)
 : 0.8	.	0.67	3.7	0.4	5	0.4
Cc1ccccc1Nc1nc(N)nc(COC(=O)CCC(=O)c2ccc(F)cc2)n1
 : 2.7	5%	0.68	2.2	.	-4	.
COc1ccc2c(c1)c(C(=O)N/N=C/c1cccs1)c(C)n2C
 : -4.6	.	.	.	-0.8	-2	-0.3
Cc1ccc(C(C)c2c(C)c([N+](=O)[O-])cc(C)c2[N+](=O)[O-])cn1 (stereo not drawn)
 : 2.8	.	0.62	4.7	-0.5	-1	-0.3
Cc1ccccc1-n1c(C)nnc1SCC(=O)NCC1CCCO1 (stereo not drawn)
 : -1.4	-3%	0.68	4.0	-2.6	6	-0.1
Cc1cc2oc(=O)cc(CSc3nc(N)cc(N)n3)c2cc1C
 : 1.7	?	0.69	2.8	-11	-9	-0.5
COc1ccc(S(=O)(=O)N2CCCCCC2)cc1C(=O)NC1(C)CCS(=O)(=O)C1 (stereo not drawn)
 : 4.2	2%	0.71	0.2	0.5	1	0.9
O=C(NCc1cccc(Cl)c1)c1ccco1
 : 4.6	-2%	0.68	4.5	6.8	-2	-0.6
Cn1c(SCC(=O)NCc2ccc3c(c2)OCO3)nc2c(c1=O)SCC2
 : 1.9	.	0.7	5.0	-0.6	-10	0.1
Cc1cccc(OCC2CCCN(Cc3nc(C4CC4)no3)C2)c1 (stereo not drawn)
 : 8.8	-3%	0.68	5.5	-3.6	-3	0.0
Cc1cc(=O)oc2cc(NC(=O)CCOc3ccccc3)ccc12
 : -3.0	.	0.64	-57	6.7	-5	-1.3
Cc1cnn(-c2cc(N/N=C/c3cccc(F)c3)ncn2)c1
 : -5.8	3%	.	.	3.7	2	0.0
Nc1nc(Cl)cc(N2CCC(c3cc(-c4ccc(Cl)cc4)n[nH]3)CC2)n1
 : 0.2	4%	0.68	2.4	-3.3	7	-0.3
CCOC(=O)c1sc(NC(=O)C2CC(=O)N(c3ccc4c(c3)OCCO4)C2)nc1C (stereo not drawn)
 : 0.2	6%	0.69	1.9	.	13	.
CC1CCCCN1CCNC(=O)c1ccc2c(c1)N(Cc1ccccc1F)C(=O)c1ccccc1S2=O (stereo not drawn)
 : 7.2	4%	0.66	2.3	0.3	6	0.6
Cc1ccc(-c2nc(N/N=C/c3cccnc3)c3ccccc3n2)cc1
 : -3.3	2%	.	.	-5.5	10	-7.6
CCCNC(=O)C(=O)NCc1ccccn1
 : -0.6	.	0.69	2.9	-1.5	5	-0.3
Cc1c(-c2nc(N)nc(Nc3ccc(F)cc3)n2)oc2ccccc12
 : -0.1	0%	0.79	-0.8	0.6	2	-0.5
O=[N+]([O-])c1ccccc1S(=O)(=O)c1ccccc1
 : -2.0	.	0.61	2.8	-2.8	4	-0.2
Cc1cc(NC(=O)c2ccccc2C)n(-c2cccc(F)c2)n1
 : 3.6	-3%	0.69	-0.6	1.1	-2	1.0
COc1ccc(S(=O)(=O)N2CCOCC2)cc1NC(=O)CN(C)CC(=O)Nc1cccc(F)c1
 : -0.5	.	0.71	5.5	-4.7	-11	-1.0
COc1cccc(CC(=O)N2CCC(n3nccc3NC(=O)C3CC3)CC2)c1
 : -0.1	-6%	0.71	-0.2	-1.5	2	-0.1
CC(=O)Nc1ccc(NC(=O)c2ccc(CN3CCc4ccccc4C3)cc2)cc1
 : 4.1	.	0.64	-9.6	-8.5	1	1.6
CC(=O)N(C(C)=O)N1C(=O)c2cccc3c(N4CCOCC4)ccc(c23)C1=O
 : -16	-1%	0.72	2.4	55*	35	-0.3
COc1cc2c(cc1OC)CN(C(=O)CN1CCN(S(=O)(=O)c3ccc(C)c(C)c3)CC1)CC2
 : -1.9	-3%	0.69	6.1	5.7	-6	1.0
CC12CCC(=O)C=C1CCC1C2C(O)CC2(C)C1CCC21OCC1=O (stereo not drawn)
 : -0.1	1%	0.66	-3.2	.	5	.
COc1cc(/C=N/NC(=O)c2cc(-c3ccccc3)sc2N)cc(OC)c1OC
 : .	-8%	.	.	-0.8	.	-0.3
S=C(Nc1ccc(Oc2ccc(NC(=S)NC3CCCCC3)cc2)cc1)NC1CCCCC1
 : -1.2	0%	0.68	3.7	2.0	-4	-3.9

# Single values from the list:
# Cc1cc2oc(=O)cc(CSc3nc(N)cc(N)n3)c2cc1C | Beta2AR agonist: -9
# Cc1cnn(-c2cc(N/N=C/c3cccc(F)c3)ncn2)c1 | A1 inh: 0.0
# Cc1ccc(C(C)c2c(C)c([N+](=O)[O-])cc(C)c2[N+](=O)[O-])cn1 (stereo not drawn) | Ecoli growth: 0.62

# (list continues)
# Order of results – HNF4A DNA FP	Vif TR-FRET	Ecoli growth	UCH37 DUB inh	LANA-H2A inh	Beta2AR agonist	A1 inh
CCOC(=O)C1=C(C)NC(C)=C(C(=O)OCC)C1c1sccc1C
 : -1.9	-3%	0.71	-3.6	4.9	-2	0.3
CC1Cc2ccccc2N1CC(=O)Nc1ccc2c(c1)OC(F)(F)O2 (stereo not drawn)
 : 1.7	1%	0.7	0.1	-1.3	5	0.1
O=C(c1ccco1)N1CCN(C(=O)c2cc(-c3ccccn3)nc3ccccc23)CC1
 : -0.4	5%	0.66	0.6	-0.7	-16	0.0
CC(Sc1nc(N)cc(=O)[nH]1)C(=O)Nc1sc2c(c1C#N)CCCC2 (stereo not drawn)
 : -1.2	5%	0.67	5.0	10	-9	0.9
CC(C)CNC(=O)c1ccccc1NC(=O)/C=C/c1cccc([N+](=O)[O-])c1
 : 5.8	.	0.68	5.4	1.4	-11	-0.6
COc1c(CC=C(C)C)cc(C2CC(=O)c3c(O)cc(O)cc3O2)cc1CC=C(C)C (stereo not drawn)
 : 0.3	.	0.67	10	7.0	14	-0.8
